OX1R antag = OX1R (human) antagonism; O43613; inhibition, % at 6.6 µM; 330,000 tested, 1.8% active; AID 485270; OX1R-expressing cells, FRET antagonist read-out; in the data active = inhibition mostly above about 38%, no sharp cut-off; inactive = mostly below about 40%;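 note: 0% = agonist challenge alone and 100% = reference antagonist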
Target sequence (O43613 whole entry, looked up): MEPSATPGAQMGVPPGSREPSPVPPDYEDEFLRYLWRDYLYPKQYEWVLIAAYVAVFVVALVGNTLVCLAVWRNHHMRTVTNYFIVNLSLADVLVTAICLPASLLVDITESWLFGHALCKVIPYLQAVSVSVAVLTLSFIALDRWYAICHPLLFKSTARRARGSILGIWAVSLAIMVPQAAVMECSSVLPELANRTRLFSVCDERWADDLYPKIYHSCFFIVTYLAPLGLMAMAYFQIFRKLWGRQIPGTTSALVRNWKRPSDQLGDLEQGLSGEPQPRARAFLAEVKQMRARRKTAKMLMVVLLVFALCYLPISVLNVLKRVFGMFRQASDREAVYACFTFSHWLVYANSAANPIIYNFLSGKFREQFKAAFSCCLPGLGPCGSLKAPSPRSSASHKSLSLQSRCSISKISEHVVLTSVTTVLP
STK33 inh = blocks human STK33 kinase activity; Q9BYT3; purified STK33, MBP phosphorylation, ADP-Glo luminescence; inhibition, % at 10 µM; 320,000 tested, 0.073% active;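 active = inhibition at or above 25%, using the most active replicate where run in duplicate; inactive = inhibition below 25%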
Target sequence (Q9BYT3 whole entry, looked up): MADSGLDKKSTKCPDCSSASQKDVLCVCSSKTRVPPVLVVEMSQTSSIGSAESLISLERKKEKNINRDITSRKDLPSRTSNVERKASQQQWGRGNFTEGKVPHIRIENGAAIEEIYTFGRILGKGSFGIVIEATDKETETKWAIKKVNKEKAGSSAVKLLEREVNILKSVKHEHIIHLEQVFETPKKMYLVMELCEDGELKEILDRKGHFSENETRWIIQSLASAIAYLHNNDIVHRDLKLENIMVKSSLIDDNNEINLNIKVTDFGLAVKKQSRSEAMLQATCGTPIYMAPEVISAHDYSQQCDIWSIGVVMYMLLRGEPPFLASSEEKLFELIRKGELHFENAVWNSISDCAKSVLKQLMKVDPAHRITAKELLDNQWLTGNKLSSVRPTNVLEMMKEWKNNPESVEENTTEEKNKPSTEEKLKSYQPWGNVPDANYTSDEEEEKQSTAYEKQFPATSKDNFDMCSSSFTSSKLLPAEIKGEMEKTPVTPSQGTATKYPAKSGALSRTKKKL
* hit, by the source's call; . = no result given; & = joins results of further samples. The list is partial; most or all hits stand in other tables.

Molecule	OX1R antag	STK33 inh
Cc1ccc(NC(=O)Cn2nc(C)c3ccccc3c2=O)c(C)c1	8	1.3
O=c1c2[nH]c3ccc(F)cc3c2ncn1C1CCCCC1	8	-0.7
CC(C)(C)c1ccc(C(=O)NNc2cc(N3CCOCC3)nc(N3CCOCC3)n2)cc1	-8	0.4
Cc1nc2ccccc2c(=O)n1N(c1ccccc1)c1ccccc1	10	-1.6
Cc1cc(N2CCOCC2)nc(SCC(=O)c2ccc(Cl)cc2)n1	24	0.1
NC(=NCCc1ccccc1)NS(=O)(=O)c1ccc(F)cc1	8	-0.3
COc1ccc2c(c1OC)C(=O)N1C2SC(C)(C)[C@H]1C(=O)NC1CCCC1 (stereo not given in full)	18	-0.1
COc1ccc(C2C(C(=O)OCC(=O)NC(C)(C)C)CCC(=O)N2c2ccc(C)cc2)cc1OC (stereo not given)	27	4.6
CCN(CC(=O)NC(C)(C)C)C(=O)CN1c2cccc3cccc(c23)S1(=O)=O	22	0.5
COc1ccc(N2CC(C(=O)Nc3ccc(S(=O)(=O)Nc4nc(C)cc(C)n4)cc3)CC2=O)cc1 (stereo not given)	0	-1.6
c1ccc(CSc2n[nH]c(-c3ccco3)n2)cc1	25	0.0
CC(C)(C)C(=O)N1CCN(c2nc3ccccc3o2)CC1	4	3.8
Cc1ccc(SCc2[nH]nc3c2C(C(C)C)C(C#N)=C(N)O3)cc1 (stereo not given)	8	0.3
O=C(NC1CCS(=O)(=O)C1)c1ccc(N2CCCCC2)c([N+](=O)[O-])c1 (stereo not given)	13	0.7
O=C(O)/C=C/C(=O)Nc1cc(F)ccc1F	8	-1.1
C=CCSc1nnc2c(n1)OC(C)=Nc1ccc(Br)cc1-2	17	-1.4
O=C(/C=C/c1ccc2ccccc2c1)c1ccoc1	7	1.3
O=C(c1ccccc1)c1ccccc1C(=O)c1ccccc1	-12&18	-1.5&-1.7
Cn1c(N)c(C(=O)CSc2nnnn2-c2ccccc2)c(=O)n(C)c1=O	5	-0.6
Cc1ccccc1SCC(=O)OCC(=O)NCCNC(=O)COC(=O)CSc1ccccc1C	25	.
COc1cccc(CN2CCN(CCc3ccccc3)C(CCO)C2)c1OC (stereo not given)	-6	0.0
Fc1cccc(/C=N/N=C/c2cccc(F)c2)c1	12	0.0
COc1ccc(OC)c(S(=O)(=O)N2CCN(Cc3ccccc3)CC2)c1	13	-0.3
CCc1ccc(CN2CCCC(CNC(=O)c3cccc(OC)c3OC)C2)cc1 (stereo not given)	-12	-0.2
CCc1cccc(CC)c1NC(=O)COC(=O)CC1c2ccccc2CCN1S(=O)(=O)c1ccccc1 (stereo not given)	49	-0.4

(further entries)
Molecule	OX1R antag	STK33 inh
Cc1cc(C)n(CCc2nc(-c3ccco3)cs2)n1	14	0.1
Cc1cccc(C)c1Nc1nnc(SCC(=O)NCc2cccs2)s1	14	-0.5
CN(C(=O)c1ccccc1Cl)c1ccccc1C(=O)NCc1ccccc1	17	-1.4
CCCC(=O)Nc1ccc(-c2nc3cc(C)ccc3o2)cc1	38	0.6
CCOc1ccc(NC(=S)Nc2ccc(OCc3ccccc3)cc2)cc1	-1	-1.3
COc1ccccc1CNC(=O)C(Cc1c[nH]c2ccccc12)NC(=O)OCc1ccccc1 (stereo not given)	32	-0.1
CCCCC(NC(C)=O)c1nc2ccccc2[nH]1 (stereo not given)	14	2.7
O=c1cnc(-c2ccc(Cl)cc2)cn1O	12	-1.3
Cc1nn2c(C)nc3sc4c(c3c2nc1=O)CC(C)(C)OC4	1	0.9
CCN(C(=O)CN1CC(C)OC(C)C1)c1c(N)n(Cc2ccccc2)c(=O)[nH]c1=O (stereo not given)	-38	-4.0
COc1ccc(-c2nn(C)c(=O)c3ccccc23)cc1CNC(=O)NC1CCCCC1	36	-1.0
CCOC(=O)c1nn(-c2ccccc2)c(=O)cc1OCC(=O)Nc1cc(C)ccc1OC	23	.
Cc1c(OCC(=O)NCCCN2CCCC2=O)ccc2c3c(c(=O)oc12)CCCC3	15	0.1
N#Cc1cccc(CSc2ncnc(N)n2)c1	-1	-1.0
N#Cc1ccc2ccn(CC(=O)NCc3ccccc3)c2c1	18	0.1
CCCC(=O)Nc1ccc(C(=O)/C=C/c2ccc(SC)cc2)cc1	27	0.6
CCC(=O)NC(=S)Nc1cccc(-c2nc3ncccc3o2)c1	8	-0.5
CSc1ccccc1C(=O)NCCOc1cccc(C)c1	4	-2.7
COCCNc1nc2nonc2nc1N1CCCC1c1nccs1 (stereo not given)	15	-1.9
Cc1cccc(OCC(=O)NNC(=O)c2ccc([N+](=O)[O-])cc2)c1	37	-0.1
COc1cc(NC(=O)COC(=O)c2cc(S(=O)(=O)N3CCCCC3)ccc2Cl)c(C)cc1[N+](=O)[O-]	22	-0.9
Cc1cccc(-n2ccnc2SCC(=O)Nc2nccs2)c1C	31	-1.0
C=CCNc1nc(-c2ccccc2)nc(-n2ccnc2)n1	14	0.0
O=C(Nc1ccc(Br)cc1)C1CC=CCC1C(=O)OCC1CCCO1 (stereo not given)	7	0.6
CN(C)S(=O)(=O)c1ccc(-c2csc(-c3cccnc3)n2)cc1	26	0.0

Laid out differently: results already given
Screens in order – OX1R antag | STK33 inh
Cc1cccc(C)c1Nc1nnc(SCC(=O)NCc2cccs2)s1
 : 14 | -0.5
CN(C(=O)c1ccccc1Cl)c1ccccc1C(=O)NCc1ccccc1
 : 17 | -1.4
CCCC(=O)Nc1ccc(-c2nc3cc(C)ccc3o2)cc1
 : 38 | 0.6
CCOc1ccc(NC(=S)Nc2ccc(OCc3ccccc3)cc2)cc1
 : -1 | -1.3
COc1ccccc1CNC(=O)C(Cc1c[nH]c2ccccc12)NC(=O)OCc1ccccc1 (stereo not given)
 : 32 | -0.1
CCCCC(NC(C)=O)c1nc2ccccc2[nH]1 (stereo not given)
 : 14 | 2.7

Other results
Molecule	OX1R antag	STK33 inh
CCN(CC)CCNC(=O)c1ccc(NC2=NC3CS(=O)(=O)CC3S2)cc1 (stereo not given)	-3	-0.7
CC(C)c1ccc(/C=N/NC(=O)CCNC(=O)c2ccccc2)cc1	8	0.0
Cc1nc2cc(NCc3cccs3)ccc2n1C	1	0.9
CC(=O)Nc1ccc(OCCOc2ccc([N+](=O)[O-])cc2)cc1	18	-1.1
CCOC(=O)C1(Cc2ccccc2C(F)(F)F)CCN(CCCn2cccn2)CC1	27	-1.3
CCOC(=O)C1/C(=N\O)CC(C)(O)C(C(=O)OCC)C1c1ccc(N(C)C)cc1 (stereo not given)	30	0.3
CSc1nc(N)c(C(=O)NC2CCCCC2)s1	17	-0.6
CCc1nc(NC(C)C)c2oc3ccccc3c2n1	23	1.9
O=C(NCc1cccnc1)/C(=C\c1ccc(-c2cccc(Cl)c2)o1)S(=O)(=O)c1ccccc1	16	-1.1
CCn1cnc2cc(NC(=O)c3cccs3)ccc21	-4	0.7
CCOC(=O)c1c(S(=O)(=O)NCC(=O)Nc2ccc(F)cc2F)c(C)n(C)c1C	7	-2.0
CC12CC(c3ccccc3O1)C(C(=O)NCc1ccccc1)C(=O)N2 (stereo not given)	17	-1.5
O=C(Nc1ccc(F)cc1)C1CCN(S(=O)(=O)c2ccc3[nH]c(=O)oc3c2)CC1	-6	-0.6
COC(=O)c1cc(S(=O)(=O)N(C)c2ccc(C)c(C)c2)c[nH]1	14	1.1
Cc1ccc(C(=O)O)cc1S(=O)(=O)N1CCSCC1	20	-1.5
COc1ccc(CCC(=O)NC2CCCN(Cc3ccc(Cl)cc3)C2)cc1OC (stereo not given)	18	1.0
CCOc1cc(C2C(C(=O)c3ccco3)=C(O)C(=O)N2Cc2ccccc2)ccc1O (stereo not given)	17	2.8
CS(=O)(=O)N(CC(=O)N1CCc2ccccc2C1)Cc1ccccc1	5	0.9
CCn1c(SCC(=O)c2ccccc2)nnc1-c1cccs1	22	-0.9
CC(Sc1cccc2cccc(C(=O)O)c12)C(=O)O (stereo not given)	19	-0.5
CC(=O)N1CCN(c2ccccc2NC(=O)c2cccs2)CC1	54	-0.6
CCc1ccc(OCCNC(=O)OCc2ccccc2)cc1	-1	0.2
COCCn1c(SCC(=O)Nc2cccc(C)c2)nnc1C(C)C	9	0.0
N#Cc1c2n(c(=S)n(-c3ccc(F)cc3)c1=O)CCCCC2	5	-1.0
COc1ccc(/C=N/Nc2ncccc2[N+](=O)[O-])c(OC)c1	50*	1.5

Molecules listed so far with bromine, in the order listed:
Molecule	OX1R antag	STK33 inh
C=CCSc1nnc2c(n1)OC(C)=Nc1ccc(Br)cc1-2	17	-1.4
O=C(Nc1ccc(Br)cc1)C1CC=CCC1C(=O)OCC1CCCO1 (stereo not given)	7	0.6

(list continues)
Molecule	OX1R antag	STK33 inh
O=C1CCCc2cc3c(cc21)CC1(C3)Cc2cc3c(cc2C1)C(=O)CCC3	30	-0.8
CCN(CC)CCCNC(=S)N(Cc1cccnc1)Cc1cc2cc(C)ccc2[nH]c1=O	0	-1.5
COc1ccc(Oc2cc(C(F)(F)F)cnc2C(N)=O)cc1	16	-1.6
CN(c1ccccc1)S(=O)(=O)c1ccc(NC(=O)c2ccco2)cc1	36	-0.4
COc1ccc(S(=O)(=O)N2CCC(C(=O)N3CCc4ccccc4C3)CC2)cc1	26	-3.4
CC(C)N(c1ccccc1)c1ncnc(NCCC(=O)O)c1[N+](=O)[O-]	15	-1.4
c1ccc(-c2nnc3sc(-c4ccncc4)nn23)cc1	17	2.2
CCC(=O)Nc1nnc(C(C)(C)C)s1	-3	-0.3
CC(C)=CC(=O)OCC(=O)Nc1ccc(Cl)cc1	34	-0.5
Cc1cccc2sc(NC(=O)CN(C)S(=O)(=O)c3ccc(Br)s3)nc12	29	-0.2
Cc1ccc(-c2cc3nc(C)cc(C)n3n2)cc1	44	-0.8
COc1ccc(CNCc2ccc3c(c2)OCO3)cc1Br	-1	-0.4
COc1cc(CN(C(=S)NCC(=O)NC2CCCC2)C2CCCC2)cc(OC)c1OC	25	0.3
O=S(=O)(c1ccc(Cl)cc1)N(Cc1ccccn1)Cc1ccccn1	-2	-0.8
Cc1sc2nc(C3CCCCC3)nc(SCC(=O)N3CC(=O)Nc4ccccc43)c2c1C	2	-1.3
COCC(=O)NC(C)c1nc2ccccc2[nH]1 (stereo not given)	12	-0.5
CNC(=S)NC1CC2CCCC(C1)N2Cc1ccc(C)cc1 (stereo not given)	3	-1.4
CCc1ccc(-c2cc(C)no2)cc1S(=O)(=O)NCCc1ccc(S(N)(=O)=O)cc1	7	0.3
Cc1ccc(SCc2[nH]nc3c2C2(C(=O)Nc4ccc([N+](=O)[O-])cc42)C(C#N)=C(N)O3)cc1 (stereo not given)	10	0.8
Cc1cccc(OCC(=O)O/N=C(\N)Cc2ccc(Cl)cc2)c1	13	-1.7
COc1cc(SC)ccc1C(=O)N1CCc2ccccc21	6	-2.3
CCSc1nnc(NC(=O)c2ccccc2)s1	8	-2.1
O=C(CNC(=O)c1ccc2ccccc2c1)NCc1ccccc1F	31	0.5
CCOc1ccc(NC(=O)C(Cc2ccccc2)NC(=O)C2CCCCC2)cc1 (stereo not given)	6	-1.9
CCN(CC)S(=O)(=O)c1cccc(NC(=O)COC(=O)CNC(=O)c2cccc(F)c2)c1	12	0.7

The list continues:
Molecule	OX1R antag	STK33 inh
Cn1c(-c2ccc3c(c2)OCO3)cnc1NCc1cccc(O)c1	9	1.0
COCCN(CC(=O)Nc1cccc(C)c1)S(=O)(=O)c1ccc(S(=O)(=O)N2CCCC2)cc1	11	-0.4
CCOC(=O)Cn1c(=O)oc2cc(S(=O)(=O)N(C)c3ccc(OC)cc3)ccc21	7	-0.7
COc1cc(/C=c2\s/c(=C\C(=O)C(C)(C)C)[nH]c2=O)cc(OC)c1OC	39	1.0
O=S(=O)(NCC1(N2CCOCC2)CCCCC1)c1ccc(F)c(F)c1F	4	-1.1
O=C(NCCNC(=O)c1ccco1)c1ccc(F)cc1	30	0.1
Cn1c(=O)c(=O)n(C)c2cc(S(=O)(=O)N3CCC(N4CCCCC4)CC3)ccc21	7	3.0
COC(=O)[C@@]1(Cc2ccc(OC)cc2)[C@H]2c3cc(C(=O)N4CCCC4)n(C[C@H](O)CO)c3C[C@H]2CN1C(=O)c1ccccc1	18	-1.7
Cc1nc(-c2ccccc2)sc1-c1nnc(C2CC2)o1	12	-0.6
CCOC(=O)C1C(O)=CC(=O)CC1c1ccccc1 (stereo not given)	31	-1.2
COc1ccc(S(=O)(=O)Cc2ccc(C(=O)N3CC(C)CC(C)C3)o2)cc1 (stereo not given)	8	.
NC(=O)Cn1c(=O)n(C2CCCCC2)c(=O)c2c3c(sc21)CCCCC3	4	-2.9
Cc1onc(-c2ccccc2Cl)c1C(=O)c1ccccc1	13	-0.3
CCC(C)(C(=O)NC1CCCCC1)N(Cc1cccs1)C(=O)CC1NC(=O)NC1=O (stereo not given)	1	-1.3
CCOC(=O)c1cccc(NC(=O)c2cc3sccc3n2C)c1	32	-1.6
CCOC(=O)/C=C1\SCC(=O)N1CC(=O)Nc1ccc(OC)c(OC)c1	14	0.2
Cc1nc2nc(C)c(NS(=O)(=O)c3ccc4c(c3)CCCC4)c(=O)n2[nH]1	5	-1.0
Cc1cccnc1NC(=O)c1ccc(Br)o1	-6	0.2
C=CCn1c(C)cc(C(=O)CSc2nnc(NC(C)C)s2)c1C	12	0.7
O=C(NCCOc1ccc(Cl)cc1)C1CCCCC1	11	-0.4
CCC(=O)Nc1ccc(-n2nnnc2SCC(=O)NNC(=O)c2ccco2)cc1	4	0.2
CSc1ccccc1NC(=O)CSc1nnnn1-c1ccccc1SC	7	-1.7
CN(C)Cc1c(-c2ccc(Cl)cc2)nc2ccccn12	11	-0.9
CCCC(=O)c1c(NC)cc(C)oc1=O	17	2.1
